Compound activity from PubChem.
RGS16-Gao HTS – regulators of human RGS16-Galphao interaction. actives 0.38% (n = 220,000). O15492+P09471. bead-based flow cytometry RGS16-Galphao binding, fluorescence; actives lie on both sides. binding response (% of control), % at 10 µM;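 active means below 25% or above 175%, edge rows of some plates excepted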;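 further: Galphao activated by GDP with aluminum fluoride before binding; 100% = wells without compound and 0% = beads without RGS; some results beyond the cut were filed as inactive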
Target sequence (O15492 whole entry, looked up): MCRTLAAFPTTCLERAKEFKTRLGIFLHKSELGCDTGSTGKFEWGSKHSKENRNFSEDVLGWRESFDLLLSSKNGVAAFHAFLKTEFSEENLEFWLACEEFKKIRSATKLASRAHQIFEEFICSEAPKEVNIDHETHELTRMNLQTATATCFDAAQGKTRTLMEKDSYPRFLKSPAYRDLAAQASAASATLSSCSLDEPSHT
Target sequence (P09471 whole entry, looked up): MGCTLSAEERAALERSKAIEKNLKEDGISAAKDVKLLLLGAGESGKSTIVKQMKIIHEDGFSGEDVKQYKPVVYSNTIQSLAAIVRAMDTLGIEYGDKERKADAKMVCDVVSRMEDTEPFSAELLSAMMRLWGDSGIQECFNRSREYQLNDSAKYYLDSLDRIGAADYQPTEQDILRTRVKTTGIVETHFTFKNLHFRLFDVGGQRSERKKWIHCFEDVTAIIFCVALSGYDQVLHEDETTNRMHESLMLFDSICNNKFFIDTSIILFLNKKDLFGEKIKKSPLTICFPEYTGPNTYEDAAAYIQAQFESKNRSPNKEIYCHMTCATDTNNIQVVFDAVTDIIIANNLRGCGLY
PKD1 inh – inhibitors of human PKD1 kinase | AID 797 | Q15139 | actives 0.056% (n = 200,000) | inhibition, %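 (about 10 µM by stock and volumes)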 | PKD1 kinase fluorescence polarization assay;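 active means inhibition of 50% or more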;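 further: controls were vehicle for no effect and a reference inhibitor for full effect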
HSV replic up – increases HSV replication in cells; HSV replication augmentation in cells, fold increase; maximum fold increase; actives 0.005% (n = 220,000);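 active means peak rise of 1.5-fold or more in the series; tested in PC3 cells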;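 further: first round at 10 µM; read as green reporter fluorescence; hits show the peak of a series up to 25 µM; 1 = signal of infected wells without compound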
GALR2 agonist – GALR2 (human) receptor agonism; GALR2-expressing cells, agonist activation read-out; O43603; activation, %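 (tested at 5 µM)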; actives 0.48% (n = 140,000);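 active means above mean plus 3 SD of all compounds, about 5% in these data, not always enough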;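 further: 0% = vehicle buffer wells and 100% = reference agonist at full effect; tested in CHO reporter cells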
Target sequence (O43603 whole entry, looked up): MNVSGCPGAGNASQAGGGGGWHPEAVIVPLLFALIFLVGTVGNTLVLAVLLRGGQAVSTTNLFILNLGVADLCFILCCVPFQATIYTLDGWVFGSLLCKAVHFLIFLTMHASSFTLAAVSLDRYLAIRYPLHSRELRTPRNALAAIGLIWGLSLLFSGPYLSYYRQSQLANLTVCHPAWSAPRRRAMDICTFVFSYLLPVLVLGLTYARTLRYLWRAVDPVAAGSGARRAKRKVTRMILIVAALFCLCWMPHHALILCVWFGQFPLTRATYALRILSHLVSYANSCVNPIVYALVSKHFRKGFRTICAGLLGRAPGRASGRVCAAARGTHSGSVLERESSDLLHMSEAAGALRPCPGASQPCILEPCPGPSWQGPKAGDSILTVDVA
Insulin prom inh – TRM-6 insulin promoter activity inhibition. TRM-6 cells (human fetal islet line), insulin promoter-eGFP reporter, imaging; reporter expression induced with tamoxifen. inhibition, % at 2 µM. actives 0.9% (n = 130,000). AID 1273;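 active means inhibition above the mean plus 3 SD, with well images judged a real hit on visual review, cut at about 60% in these data, passing the limit was not always enough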
Insulin prom inh cell count – second read-out of Insulin prom inh, no call of its own (marks repeat the call); normalized cell count, %; measured here: cell count, toxicity; reference of the scale not given here;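 cells exposed to compound for 48 h; stained nuclei by imaging scaled within each plate; lower means fewer cells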
HSV replic up primary fold – recorded beside HSV replic up, whose call it bears; fold increase; compound at 10 µM; measured here: primary screen fold increase 10 uM; tested in PC3 cells;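 GFP signal in the first replicate; 1 = infected wells without compound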
* = called active by the depositor; i = inactive; x = no result given.

SMILES	RGS16-Gao HTS	PKD1 inh	HSV replic up	HSV replic up primary fold	GALR2 agonist	Insulin prom inh	Insulin prom inh cell count
c1ccc(-c2nnc(SCc3nc4ccccc4[nH]3)n2Cc2ccco2)nc1	101	3	i	1.1	-1.0	-62	77
CCOc1[nH]n(-c2ccccc2)c(=O)c1C=Nc1ccc(C)cc1	98	-1	i	0.91	x	x	x
Fc1ccc(-n2c(-c3cccs3)nc3nc4ccccc4nc32)cc1	99	-4	i	1.1	1.1	0	119
O=C(Cc1coc(-c2ccc(F)cc2)n1)Nc1ccccc1	103	-12	i	1	0.3	4	118
COC(=O)c1ccc(NC(=O)C(=O)c2cccn2C)cc1	109	-7	i	1	x	x	x
COc1ccc(NC(=O)CCC(=O)c2ccc(-c3ccccc3)cc2)cc1	136	-6	i	1.1	0.7	-13	93
COc1ccc(S(=O)(=O)NCc2ccc(C)cc2)cc1	99	0	i	0.89	-2.7	-3	50
O=C(Cc1ccc(Cl)cc1)Nc1ccc(N2CCN(C(=O)c3ccco3)CC2)c(Cl)c1	92	2	i	0.99	1.0	-52	108
O=C(NCCc1c[nH]c2ccccc12)/C(=C\c1cccnc1)NC(=O)c1ccccc1F	87	x	i	0.91	x	x	x
Cc1cc(=O)[nH]c(SCC(=O)N(CCC#N)c2ccccc2)c1C#N	102	-11	i	0.98	x	x	x
COc1ccc(S(=O)(=O)NC(CC(=O)NCc2ccco2)C(C)C)cc1 (centres undefined)	103	-9	i	1.1	-3.1	x	x
FC(F)(F)c1cccc(N2CCN(C(=S)NCC3CCCO3)CC2)c1 (centres undefined)	102	-2	i	0.84	x	x	x
CCN(CC)S(=O)(=O)c1ccc2c3c(cccc13)C(=O)N2	100	21	i	0.97	0.7	x	x
Cc1ccc(S(=O)(=O)N2CCCC2)cc1[N+](=O)[O-]	100	-6	i	0.89	-0.1	-3	145
Cc1ccc(N(CC(=O)O)S(C)(=O)=O)cc1Cl	105	4	i	1	-2.7	-14	97
N#CN(CC(N)=O)c1nc(N2CCCCC2)nc(N2CCCCC2)n1	108	9	i	0.91	-0.4	0	53
O=C(C1CCC(=O)N1C1CCCCC1)N1CCN(c2ccc(F)cc2)CC1 (centres undefined)	125	2	i	1	-3.0	x	x
Cc1ccc(-c2n[nH]c(=O)c3ccccc23)cc1S(=O)(=O)Nc1ccc(F)cc1	102	x	i	1.1	x	x	x
CCOC(=O)C1CCCN(C(=O)CC(C)c2ccccc2)C1 (centres undefined)	89	0	i	0.73	-0.4	-14	164
NC(=O)C1CCN(CC(=O)c2c[nH]c3ccc(F)cc23)CC1	100	-6	i	1.3	-2.1	16	95
CCn1c(C)nc2cc(C(=O)NNC(=O)CCC3CCCC3)ccc21	102	-11	i	0.96	0.8	x	x
Cc1nc(SCC(=O)Nc2ccc(F)cc2)c(C#N)c(C)c1CC(=O)c1ccc(Br)cc1	103	-7	x	x	-0.8	42	109
Cn1c(C(C#N)C(=O)Cc2cccc3ccccc23)nc2ccccc21 (centres undefined)	104	-10	i	0.93	0.2	x	x
O=C(/C=C/c1ccccc1)NC(=O)c1ccccc1O	100	x	i	0.89	x	x	x
O=C(NCCc1cccs1)c1ccc(Cl)c(Cl)c1	94	-4	i	1.1	x	-55	91
Cc1cc(C(=O)NCc2cccnc2)n(-c2ccccc2)n1	101	-22	i	0.88	-0.3	x	x
COc1ccccc1OC(=O)C1CC(=O)N(c2ccc(Cl)cc2)C1 (centres undefined)	100	-2	i	0.95	-2.7	9	141
N#Cc1ccc(N2C(=O)[C@@H]3C(C(=O)C(c4ccccc4)c4ccccc4)=NN[C@@H]3C2=O)cc1	101	-6	i	1	-0.2	0	166
CSc1ccccc1-n1nnnc1SCC(=O)Nc1cc(C)ccc1C	102	3	i	0.94	-2.9	34	13
COc1ccc(CN2C(=O)Cc3c2nc(N)c2c(N)nc(N4CCOCC4)c(C#N)c32)cc1	100	x	i	0.87	x	x	x

Entries of single compounds as entered above.
Cc1ccc(-c2n[nH]c(=O)c3ccccc23)cc1S(=O)(=O)Nc1ccc(F)cc1 is listed with RGS16-Gao HTS: 102; PKD1 inh: x; HSV replic up: i; HSV replic up primary fold: 1.1; GALR2 agonist: x; Insulin prom inh: x; Insulin prom inh cell count: x
CCn1c(C)nc2cc(C(=O)NNC(=O)CCC3CCCC3)ccc21 is listed with RGS16-Gao HTS: 102; PKD1 inh: -11; HSV replic up: i; HSV replic up primary fold: 0.96; GALR2 agonist: 0.8; Insulin prom inh: x; Insulin prom inh cell count: x

The list goes on:
SMILES	RGS16-Gao HTS	PKD1 inh	HSV replic up	HSV replic up primary fold	GALR2 agonist	Insulin prom inh	Insulin prom inh cell count
CNC(=O)COC(=O)c1ccc(NS(=O)(=O)c2ccc3c(c2)OCCO3)cc1	100	-2	i	0.89	x	-67	66
CCOC(=O)c1c(NC(=O)Cn2nnc3ccccc32)sc2c1CCC(C)C2 (centres undefined)	113	-10	i	0.97	0.0	x	x
Cc1ccccc1C(=O)NCC(=O)Nc1ccccc1C(F)(F)F	97	5	i	1.1	x	x	x
Cc1ccc(-n2nnnc2SCC(=O)Nc2ccc3c(c2)COC3=O)cc1C	96	-2	i	0.97	1.7	25	164
Cc1nn(Cc2ccc(Cl)cc2)c(C)c1NC(=O)c1noc2c1CCCCC2	100	-24	i	0.93	0.0	0	99
CC(=O)Nc1ccc(NC(=O)COC(=O)c2ccc(C)s2)cc1	98	2	i	0.91	-1.4	-47	113
COc1cc2c(cc1NC(=O)c1cc(-c3ccncc3)nc3ccccc13)oc1ccccc12	75	5	i	0.92	-1.2	-20	136
COCCNC(=O)CSc1nc(-c2ccccc2)c(-c2ccccc2)o1	71	-6	i	0.84	-2.4	-19	193
N#CC1=C(N)N2C(=C(C#N)C13CCCCC3)SC1CCCCC12O (centres undefined)	110	-2	i	0.89	-0.7	x	x
O=C(O)C1CSC2c3ccccc3C(=O)N12 (centres undefined)	102	-3	i	0.89	-1.3	12	106
CC1CC1C(=O)NCCc1ccc(Cl)cc1 (centres undefined)	106	-5	i	0.91	-1.5	38	122
c1ccc(CSc2ccc(-c3ccccn3)nn2)nc1	101	-1	i	0.89	x	-50	169
CNC(=O)C(C)c1ncc(C(F)(F)F)cc1Cl (centres undefined)	100	1	i	0.91	x	10	146
COc1ccc(N(C(=O)CNC(=O)c2ccco2)C(C(=O)NC2CCCCC2)c2ccco2)cc1 (centres undefined)	96	-8	i	0.96	-2.2	42	108
Cn1c(=O)n(C)c2cc(/C=C3/NC(=O)N(Cc4ccccc4)C3=O)ccc21	98	-5	i	0.95	-1.5	18	157

4 records picked at random from the list so far:
SMILES	RGS16-Gao HTS	PKD1 inh	HSV replic up	HSV replic up primary fold	GALR2 agonist	Insulin prom inh	Insulin prom inh cell count
CC(=O)Nc1ccc(NC(=O)COC(=O)c2ccc(C)s2)cc1	98	2	i	0.91	-1.4	-47	113
CNC(=O)C(C)c1ncc(C(F)(F)F)cc1Cl (centres undefined)	100	1	i	0.91	x	10	146
COc1cc2c(cc1NC(=O)c1cc(-c3ccncc3)nc3ccccc13)oc1ccccc12	75	5	i	0.92	-1.2	-20	136
CCOC(=O)c1c(NC(=O)Cn2nnc3ccccc32)sc2c1CCC(C)C2 (centres undefined)	113	-10	i	0.97	0.0	x	x

(list continues)
SMILES	RGS16-Gao HTS	PKD1 inh	HSV replic up	HSV replic up primary fold	GALR2 agonist	Insulin prom inh	Insulin prom inh cell count
Fc1cccc(NC(=S)NNc2c3ccccc3nc3ccccc23)c1	114	1	i	1	x	x	x
COC(=O)c1ccc(/C=N\N2CCN(Cc3ccc(C)cc3)CC2)cc1	102	-10	i	1	-1.3	x	x
O=C(COc1ccc(C(=O)c2ccc(F)cc2)cc1)NCc1ccc(F)cc1	103	-5	i	0.76	-0.2	x	x
COc1ccc(CCNC(=O)CCN2C(=O)COc3ccccc32)cc1OC	103	-17	i	1.1	-1.3	59	128
Cc1ccc(NC(=O)CN2C(=O)S/C(=C\c3cccn3-c3cccc(C(=O)O)c3)C2=O)cc1C	106	-4	i	0.97	x	x	x
COc1ccc(C(=O)COC(=O)CN2CC(=O)Oc3ccccc32)cc1Br	86	-1	i	1.1	-0.7	x	x
Cc1nonc1NC(=O)CSc1nc2cc(Cl)ccc2c2c1CCCC2	109	3	i	1	0.0	x	x
C=C(C)CNC(=S)N/N=C/c1ccc(NC(C)=O)cc1	96	-5	i	0.99	x	x	x
COc1ccc(Cl)cc1N/C(N)=N/c1nc(C)cc(C)n1	105	1	i	0.78	x	x	x
COc1cccc(OC)c1C(=O)NNC(=O)c1ccccc1-n1cccc1	106	6	i	0.92	x	7	119
COc1cc(NS(=O)(=O)c2ccc(NC(=S)NC(=O)COc3ccccc3OC)cc2)nc(OC)n1	106	2	i	1.1	x	x	x
OC(CCN1CCC2(CC1)OCCO2)C(F)(F)F (centres undefined)	99	-2	i	0.96	x	x	x
Cc1cc(C(=O)N2CCCC(C(=O)c3cc(F)ccc3F)C2)c(C)o1 (centres undefined)	87	3	i	1	x	x	x
CCN(CC)S(=O)(=O)c1ccc2[nH]cc(C(=O)NCCc3ccc(OC)c(OC)c3)c(=O)c2c1	111	-11	i	0.96	-1.5	10	79
Cc1nc2ccc(NC(=O)NC(=O)c3c(Cl)cccc3Cl)cc2o1	96	x	i	1	x	x	x
Cc1c(Cl)cccc1NC(=S)NCC(C)C	103	-4	i	0.99	-0.7	-69	137
COc1ccc(CCNC(=O)c2cc(=O)n(C)c(=O)n2C)cc1OC	102	5	i	0.88	x	x	x
COc1ccc(NS(=O)(=O)c2cccc(NC(=O)c3cnccn3)c2)cc1Br	94	0	i	0.98	x	5	105
COc1cccc(/C=N/Nc2ncnc3scc(-c4ccccc4)c23)c1OC	106	-6	i	0.88	-0.5	-9	105
Cc1cc(NC(=O)c2ccco2)no1	98	0	i	0.82	-0.3	64	129
CC(=O)C(C)Oc1ccc(Cc2ncc(C(F)(F)F)cc2Cl)cc1 (centres undefined)	97	5	i	1.2	x	-16	102
Cc1ccc(OCC(=O)NN2C(=O)c3ccccc3C2=O)c(C)c1	98	-3	i	0.96	-2.8	27	151
CCN(CC)S(=O)(=O)c1cc(NC(=O)C(C)OC(=O)c2[nH]c(C)c(C(C)=O)c2C)ccc1C (centres undefined)	126	-2	i	0.91	-0.9	26	73
Cc1ccc(SCC(=O)N2c3ccccc3Sc3ccccc32)cc1	104	2	i	1.1	-0.5	37	54
N#CNC(=Nc1cccc(Cl)c1)Oc1ccccc1	86	x	i	0.73	x	x	x
CCN(CC)CCCNC(=O)c1nn(-c2cccc(OC)c2)c(=O)c2ccccc12	97	1	i	1.1	0.1	-64	135
COC(=O)[C@H](CCSC)NC(=O)N1CCN(c2cccc(C(F)(F)F)c2)CC1	103	4	i	0.94	-0.7	14	149
CN(C)S(=O)(=O)c1cccc(-c2nnc(-c3ccccc3)o2)c1	85	-3	i	0.88	-3.1	9	106
O=S(=O)(Cc1cc(-c2ccccc2)no1)c1ccccc1	102	-2	i	1.1	x	24	63
O=C(O)CSCC(=O)Nc1ccccn1	102	x	i	1.1	x	x	x
Cc1ccccc1SCC(=O)Nc1ccc(N2CCOCC2)cc1	104	6	i	1.1	x	8	133
CCn1c(-c2cccnc2Cl)nc2cc(Cl)c(Cl)cc21	99	-3	i	0.69	-1.3	-4	126
Cc1ccc(NC(=O)CN(C)C(=O)/C=C/c2cccc(F)c2)cc1	100	3	i	1.1	x	23	108
COc1cccc(-c2noc(Cn3nc(C)c([N+](=O)[O-])c3C)n2)c1	108	-6	i	0.96	-4.2	-6	143
COc1ccc(C(NC(=O)/C=C/c2ccco2)c2ccc(OC)cc2)cc1	102	-11	i	1.3	-0.9	x	x
O=C(CSCc1cccc(CSCC(=O)Nc2ccc3ccccc3c2)n1)Nc1ccc2ccccc2c1	99	6	x	x	-0.6	-9	119
Cc1ccc2occ(/C=C/C(=O)O)c(=O)c2c1	100	5	i	0.89	-1.4	-14	69
COc1ccc(S(=O)(=O)N2CCCCCC2)cc1N(C)S(=O)(=O)c1ccc(Cl)cc1	105	-9	i	0.91	-1.8	29	112
O=C(N/N=C/C(Cl)=C\c1ccccc1)c1cccs1	102	x	i	0.81	x	x	x
CC(C)(C)NC(=O)COc1ccc(CNc2ccc3[nH]c(=O)[nH]c3c2)cc1	98	-4	i	0.88	-2.9	9	200
Cc1ncoc1C(=O)NCc1ccccc1Cl	92	1	i	1	-0.5	57	125
COc1cccc(CC2(CO)CCCN(Cc3ccc4c(c3)OCCO4)C2)c1 (centres undefined)	69	14	i	1.1	x	x	x
O=C(c1cc([N+](=O)[O-])ccc1N1CCCC1)N1CCCC1	98	-6	i	0.88	x	-14	97
N=c1c2c(-c3ccccc3)c(-c3ccccc3)oc2ncn1CCN1CCOCC1	103	6	i	0.92	1.7	x	x
Cc1c(Cl)cccc1NC(=O)CSc1nc2c(c(=O)[nH]1)CCCC2	83	-13	i	0.98	-1.1	-67	68
COc1ccc(CN(Cc2ccccn2)C(=O)CN2C(=O)C(C)Oc3ccccc32)cc1 (centres undefined)	104	-4	i	1	0.4	x	x
